# From PubChem BioAssay
# Ba CapD inh: Bacillus anthracis CapD inhibitors, primary screen, biochemical, fluorescence intensity | CapD gamma-glutamyltranspeptidase (Bacillus anthracis Ames Ancestor) | purified CapD enzyme, fluorescence intensity read-out; active compounds read low; some hits fall short of the stated cut | z-score (concentration not given with the values) | 0.23% of 140,000 active | AID 492967, 2010;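 active means z-score under -4 in either of two replicates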;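 further: stock transfer was 100 nL into about 40 µL; score is relative to mean and spread of the plate; one replicate is shown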
# AID504770: growth inhibition of E. coli YBA685, primary screen, V. cholerae RctB inhibitors; 0.27% of 130,000 active; z-score (test concentration not listed); AID 504770, 2011; E. coli YBA685 rctB-dependent plasmid, OD600 growth, 3 h; active compounds read low;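 active means z-score under -2 on both plates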;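 further: wells of about 30 µL received 100 nL stock; score is relative to mean and SD of the test wells; the first replicate is given; strong numbers were not always called active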
# * = called active by the depositor; . = not tested or not shown; & = joins results of further samples. No enrichment for hits; overall some 0.39% were active at least once.
SMILES,Ba CapD inh,AID504770
O=C(c1ccccc1)N1CCN(C2=NS(=O)(=O)c3ccccc32)CC1,-0.18,1.6
CC1CCCC(C)N1C(=O)CSc1nc2cc(Cl)ccc2o1 (stereo unspecified),.,0.2
N#Cc1cnc(N2CCc3ccccc32)nc1N,-0.35,0.15
O=C(O)CSCC(=O)Nc1ccccc1Sc1ncnc2cc(-c3ccccc3)sc12,3.9,2.3
CN(Cc1ccccc1)C(=O)CN1CCN(C(c2ccccc2)c2ccccc2)CC1,.,0.8
Cn1cnnc1SC1c2cccc3cccc(c23)C1NS(=O)(=O)c1ccccc1 (stereo unspecified),.,0.4
O=C(O)c1cc2cc(OC(F)(F)F)ccc2[nH]1,1.1,.
Nc1cc(N)nc(SCCC(=O)O)n1,0.49,-1.6
CNC(=O)c1ccccc1-[s+]1c2ccccc2c(=O)n1C (stereo unspecified),0.42&-0.73,-0.3&2.2
Cc1cc(OC(C)C(=O)Nn2cnnc2)ccc1Cl (stereo unspecified),0.15,0.4
CC(=O)N[C@H](CS)C(=O)O,-0.17,.
COc1cc(-c2nc3sc4c(c3c(=O)[nH]2)CCCC4)cc(Cl)c1OCCOc1cc(C)ccc1C(C)C,0.005,.
Cc1cc2oc(=O)cc(CN3CCCc4ccccc43)c2cc1C,.,-0.55
COCc1cc(C)nc(Nc2ccccc2OC)c1C#N,0.23,1.5
O=C(/C=C/c1ccccc1)Nc1nc2ccc(S(=O)(=O)N3CCCC3)cc2s1,0.01,-0.05
Cc1ccc(-c2nnn(CC(=O)N(CC(=O)NCC3CCCO3)C3CCN(Cc4ccccc4)CC3)n2)o1 (stereo unspecified),.,-0.8
CCN1CCN(C(=O)c2sc3ncnc(N4CCCCC4C)c3c2C)CC1 (stereo unspecified),-0.12,.
O=C(c1c(F)cccc1F)N1CCN(Cc2cc3cccc4c3n(c2=O)CCC4)CC1,2,.
Cc1ccc(C)c2[nH]c(=O)c(CN(CCN3CCCC3)C(=O)Nc3cccc(Cl)c3)cc12,.,-0.75
CCNC(=O)c1ccc(C23CC4CC(CC(C4)C2)C3)o1,-0.11,-0.4
CN(CCO)CC(O)c1ccccc1 (stereo unspecified),.,0.55
O=C(O)CCN1C(=O)c2ccccc2S1(=O)=O,0.075,.
COc1ccc(-c2cc(C(F)(F)F)n3nc(C(=O)Nc4ccc(C#N)cc4)cc3n2)cc1,-1.4,.
Cc1ccc(NC(=O)CC2(C(F)(F)F)OCCO2)cc1Cl,0.3,-0.5
COC(=O)c1sccc1NC(=O)c1c(C)nn(-c2ccccc2)c1-n1cccc1,-0.24,0.5
CC(Oc1ccc2ccccc2c1)C(=O)NN1S(=O)(=O)c2ccccc2S1(=O)=O (stereo unspecified),-1.2,.
COc1cccc(C(=O)NCc2ccccc2F)c1,.,1.4
O=C(CN1C(=O)c2ccccc2C1=O)N1CCN(Cc2ccccc2)CC1,0.06,0.15
Cn1nc(C(=O)OCC(=O)C(C)(C)C)c2ccccc2c1=O,.,0.1
N#Cc1ccc(NS(=O)(=O)Cc2ccccc2)cc1,0.3,0
c1cnc2nc(SCc3ccc(CSc4nc5ncccc5[nH]4)cc3)[nH]c2c1,-0.43,-0.55
CC(=O)Nc1ccc(OC(=O)c2conc2C(C)(C)C)cc1,0.015,1.5
Cc1c(N2C(=O)CSC2c2ccc(F)cc2)c(=O)n(-c2ccccc2)n1C (stereo unspecified),.,-0.15
Cc1cc2nc3s/c(=C\c4cn(Cc5ccccc5F)c5ccccc45)c(=O)n3c2cc1C,0.35,.
Cn1c(=NC(=O)c2cccc(C(F)(F)F)c2)sc2c3ccccc3ccc21,-0.56,-0.45
O=c1oc(-c2cccc(Cl)c2)nc2sc3c(c12)CCCC3,-0.02,.
CCCc1nncn1NC(=O)OCC,-0.01,0.3
[O-][n+]1onc2c1CCc1c-2nc(-c2ccco2)n1O,-3.9,-0.75
O=C(O)CC1(C(=O)O)NC(c2ccc(O)cc2O)C2C(=O)N(Cc3ccccc3)C(=O)C21 (stereo unspecified),-0.36,.
COc1cccc2cc(C(=O)Nc3ccc(F)cc3)c(=Nc3ccc(C(=O)O)cc3)oc12,-0.43,.
CC(Oc1ccc(-c2ccccc2)cc1)C(=O)N1CCN(S(C)(=O)=O)CC1 (stereo unspecified),0.84,-0.4
Cc1ccc(C)c2c1-c1ccccc1S(=O)(=O)N2S(=O)(=O)c1ccccc1,-0.41,.
O=C1C2CC3CC1CC(C(=O)O)(C3)C2,-0.065,-0.15
Cn1c(=O)c2c(ncn2CC(=O)NN)n(C)c1=O,-0.61,2.2
Nc1ncc(-c2cnc3ccccc3n2)c(-c2ccncc2)n1,0.51,.
O=C(Nc1c(C(=O)N2CCN(c3ncccn3)CC2)oc2ccccc12)c1cc(-c2ccc(F)cc2)on1,-0.1,0.5
c1ccc(-c2nnc(-c3ccco3)o2)cc1,9.2,1.4
CCOC(=O)c1ccc(N=C(N)SCc2ccccc2)cc1,-0.71,0.55
Cn1c2ccccc2c2cc(C(=O)O)ccc21,-0.34,1.5
N/C(CC(=O)NCc1ccccc1)=N\O,.,-0.5

# (more compounds)
SMILES,Ba CapD inh,AID504770
COc1ccc2c(c1)c(=O)c1ccccc1n2CC(=O)Nc1ccc(F)cc1F,-0.09,.
CC(O)(CS(=O)(=O)Cc1ccc(Cl)cc1)c1ccccc1Cl (stereo unspecified),-0.095,.
Nc1c(C(=O)C2CC2)oc2ccc(Cl)cc12,94,.
COc1ccc(NCc2nc(-c3ccccc3)no2)cc1OC,0.42,-0.45
COC(=O)/C(=C\c1c[nH]c2ccccc12)NC(C)=O,.,0.1
CCOC(=O)c1nn(-c2ccccc2)c(=N)c(C#N)c1C,-2.6,0.5
CSc1nnc(C)c(/C=C/NOCc2ccc(Cl)cc2Cl)n1,0.045,.
O=C1CCC2(CC1)OCCO2,0.01,1
Cc1ccc(C(=O)c2cccs2)s1,-1.3,0
CCOC(=O)Nc1c(C)noc1C,-0.34,-0.75
CC(=O)NC(=O)/C(C#N)=C/Nc1ccc(F)c(Cl)c1,-1.5,-0.15
Cc1ccc(C(=O)COC(=O)C(Cc2ccccc2)N2C(=O)C3C4C=CC(C4)C3C2=O)cc1C (stereo unspecified),0.52,.
CC1=C(CCN2CCN(C)CC2)C(C)(C)CCC1,-0.16,0.15
COCN(C#N)c1nc(N(C)C)nc(N(C)C)n1,2.6,-0.8
O=C1/C(=C/c2cccs2)SC(=S)N1c1ccc(Cl)c(Cl)c1,0.2,-0.1
CN1/C(=C\C(=O)COC(=O)C2CC3CCCC(C2)C3=O)C(C)(C)c2ccccc21 (stereo unspecified),.,0.95
CCCc1c(C)c2ccccc2[nH]c1=O,.,-0.8
CC(=O)Nc1ccc(-n2c(C)ccc2C)c(C(=O)O)c1,-4.8*,0.6
CC(CCc1ccccc1)NC(=O)Cn1nc(Cc2ccncc2)c2ccccc2c1=O (stereo unspecified),0.49,0.55
N#CN=C(c1ccccc1)c1ccccc1,.,-0.1

# 15 entries from above, with tabs.
compound	Ba CapD inh	AID504770
Nc1c(C(=O)C2CC2)oc2ccc(Cl)cc12	94	.
COc1ccc(NCc2nc(-c3ccccc3)no2)cc1OC	0.42	-0.45
COC(=O)/C(=C\c1c[nH]c2ccccc12)NC(C)=O	.	0.1
CCOC(=O)c1nn(-c2ccccc2)c(=N)c(C#N)c1C	-2.6	0.5
CSc1nnc(C)c(/C=C/NOCc2ccc(Cl)cc2Cl)n1	0.045	.
O=C1CCC2(CC1)OCCO2	0.01	1
Cc1ccc(C(=O)c2cccs2)s1	-1.3	0
CCOC(=O)Nc1c(C)noc1C	-0.34	-0.75
CC(=O)NC(=O)/C(C#N)=C/Nc1ccc(F)c(Cl)c1	-1.5	-0.15
Cc1ccc(C(=O)COC(=O)C(Cc2ccccc2)N2C(=O)C3C4C=CC(C4)C3C2=O)cc1C (stereo unspecified)	0.52	.
CC1=C(CCN2CCN(C)CC2)C(C)(C)CCC1	-0.16	0.15
COCN(C#N)c1nc(N(C)C)nc(N(C)C)n1	2.6	-0.8
O=C1/C(=C/c2cccs2)SC(=S)N1c1ccc(Cl)c(Cl)c1	0.2	-0.1
CN1/C(=C\C(=O)COC(=O)C2CC3CCCC(C2)C3=O)C(C)(C)c2ccccc21 (stereo unspecified)	.	0.95
CCCc1c(C)c2ccccc2[nH]c1=O	.	-0.8

# The listing continues:
SMILES,Ba CapD inh,AID504770
CC(C)(CNC(=O)Nc1ccccc1)SCc1cccc(C(F)(F)F)c1,-0.53,.
C=C(C)Cn1c(CNC(=O)C(C)(C)C)nc2ccccc21,0.24,0.95
CCOC(=O)N1CCN(C(=O)CCCN2C(=O)/C(=C\c3cccs3)SC2=S)CC1,-0.36,-0.8
Cc1onc(-c2ccccc2)c1C(=O)Nc1ccc(S(=O)(=O)Nc2ncccn2)cc1,.,-0.45
COc1cccc(-n2c(=S)sc3c2nc(SCC(=O)NCc2ccccc2)n2c4ccccc4nc32)c1,0.55,.
O=C(Cc1cccs1)Nc1cccc(-c2nnc(-c3ccco3)o2)c1,19,-0.95
CNC(=O)c1cc2cc(OC)ccc2oc1=N,.,-0.8
CS(=O)(=O)Nc1cccc2nsnc12,-0.38,-0.25
COc1ccc(-n2nc(C(F)(F)F)cc2-c2cccs2)cc1,0.25,0.05
O=C1/C(=C/c2cccs2)CCC/C1=C\c1cccs1,-0.31,.
CC1=Nc2ccc(Br)cc2C(c2ccccc2)N1CC(=O)O (stereo unspecified),0.72,0.05
COc1ccc(N2C(SC)=NC(=Nc3cccc(C(F)(F)F)c3)C23CCCCC3)cc1,-0.15,.
O=C(NC1CCCCCC1)c1cc2c(s1)CS(=O)(=O)C2,0.27,-1
O=S(=O)(Nc1cccc(F)c1)c1ccccc1,0.13,1.9
Cc1ccc2c(c1)c1c(n2CC(O)CNc2ccccc2)C(=O)CCC1 (stereo unspecified),-0.41,1.5
Cc1ccsc1C(=O)N1CC(C)OC(C)C1 (stereo unspecified),.,-0.45
COc1ccc2oc(=Nc3cc(C(F)(F)F)ccc3N3CCCCC3)c(C(N)=O)cc2c1,0.12,.
CC(C)Cc1ccc(C(C)C(=O)NCCc2c[nH]c3ccccc23)cc1 (stereo unspecified),-0.07,-2.6
COCC(C)NC(=O)c1ccc(NC(C)=O)cc1 (stereo unspecified),0.57,0.35
O=C(O)CN1C(=O)CC(Cc2ccc(Cl)cc2)C1=O (stereo unspecified),-0.1,-0.65
C=C(C)Cn1c(SCC(N)=O)nc2sc3c(c2c1=O)CC(C)(C)OC3,1.2,.
N#Cc1oc2ccccc2c1NC(=O)COC(=O)CSc1ccc2ccccc2c1,.,-0.45
CC1(C)c2cc(O)ccc2OC1N1CCOCC1 (stereo unspecified),-0.73,.
CN(CC(=O)Nc1ccc(N2CCOCC2)cc1)CC(=O)Nc1ccccc1C(=O)c1ccccc1,.,0.8
Cc1cc(C)nc(NS(=O)(=O)c2ccc(Nc3nc(-c4c(C)nc5ccccn45)cs3)cc2)n1,5.6,.
O=C(CSc1nnc(C2COc3ccccc3O2)n1-c1ccccc1)c1ccc(F)cc1 (stereo unspecified),-0.14,.
FC(F)(F)c1n[nH]c(=S)n1/N=C/c1ccc(Cl)cc1,-0.36,0
CCOc1cc(Cl)c(Cl)c2cc(C(=O)NC)c(=O)oc12,.,-0.15
CC(C)(C)C(=O)n1cc(-c2nc3ccccc3o2)c(-c2ccncc2)n1,7.9,.
CNC(=O)c1sc(CN2C(=O)c3ccccc3S2(=O)=O)nc1C,.,-0.3
O=C(/C=C/c1ccccc1)/C=C/c1ccccc1,-0.55,0.55
CCC1C(c2ccccc2)NC(c2ccccc2)CC1(O)c1ccc(F)cc1 (stereo unspecified),-0.18,-0.4
c1ccc2cc(OCCN3CCCCC3)ccc2c1,0.39,1.2
CC(=O)N1CCC(C(=O)Nc2cc(C)cc(C)c2)CC1,-0.2,-1.4
Nc1[nH]ncc1-c1ccc(-n2cccc2)cc1,-0.42,-1.1
CCCCOc1ccc(/C=N/NC(=O)c2nnn(-c3nonc3N)c2CN2CCCCCC2)cc1,-0.23,.
Cn1c2ccccc2c2cnn(CC(=O)NCc3ccccc3)c(=O)c21,3.2,-0.1
NC(=O)N1CCn2c3c(c4cc(C5CCCCC5)ccc42)CCCC31 (stereo unspecified),0.39,.
CC1(C)C(=O)OC(c2cccs2)C(C)(C)C1=O (stereo unspecified),-0.78,2.5
O=C1/C(=C\c2ccccn2)Cc2ccccc21,0.58,0.1
COc1ccc(-c2oc(/N=C/N3CCCCC3)c(C#N)c2-c2ccc(OC)cc2)cc1,-0.98,-0.85
COc1ccc(Oc2ccc(C(F)(F)F)cc2[N+](=O)[O-])cc1,-0.11,.
O=C(NCc1ccc(Cl)cc1)c1cc2c(s1)CCC2,-0.33,0.05
CCCCN1C(=O)SC(Nc2cccc(C)c2)C1=O (stereo unspecified),.,-1.2
O=C(c1ccccc1)N1CCN(CC#CC2(O)CCCCC2)CC1,0.03,-0.3
C=CCn1c(SC(C)C(N)=O)nc2ccc(Cl)cc2c1=O (stereo unspecified),.,0.7
Cc1ccc(C(=O)N2CCN(C(=O)c3ccccc3)C2c2ccc(N(C)C)cc2)cc1 (stereo unspecified),-1.2,.
CCOC(=O)CN1CC23C=CC(O2)C(C(=O)NCc2cccs2)C3C1=O (stereo unspecified),0.76,0.6
Cc1c2cnn(CC(=O)NC(C)c3ccc4c(c3)OCCO4)c(=O)c2c(C)n1Cc1ccc(F)cc1 (stereo unspecified),0.34,2
COC(=O)/C=C/C(=O)Nc1ccccc1,0.33,-2.2
O=C1NC(=Nc2ccccc2)S/C1=C\c1ccc(-c2cccc(C(=O)O)c2)o1,-0.025,.
Cc1ccc(C)c(S(=O)(=O)N(Cc2ccco2)CC2CCCO2)c1 (stereo unspecified),-1.2,.
Nc1sc2ccccc2[n+]1CC(=O)Nc1ccc(Cl)cc1,1.5,-0.6
